Vif TR-FRET = inhibitors of Vif binding to APOBEC3G peptide, primary screen, biochemical, TR-FRET, GST-Vif 1-94, biotin-A3G peptide, dose response retest (AID 1117319); one-dose inhibition, %; IC50 in µM for titrated hits; TR-FRET GST-Vif / biotin-A3G peptide binding; higher % means a stronger effect; test concentration not given here; strong numbers were not always called active; 0.57% of 260,000 active;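 active means above the screen mean plus three standard deviations and confirmed in dose response; inconclusive means results disagree or hit not tested in dose response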;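 further: Vif residues 1-94 fused to GST binding biotinylated APOBEC3G peptide 110-148; 0% = full assay without inhibitor and 100% = GST in place of GST-Vif; retest series ran down from 100 µM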
A1 inh = inhibitors of the anti-apoptotic protein A1, read as caspase activation. 0.066% of 330,000 active. AID 2462. caspase activation, % (concentration not given with the values). MEF A1-2A-BIM cells, Caspase-Glo 3/7 luminescence, 3 h; percent of clofoctol response, vehicle zero;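 active means over half of replicate activation scores above 10%, or exactly half above 10 with the replicate mean above 10; inconclusive means replicate mean below 10 yet half the replicates above 10; inactive means over half of replicates below 10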;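 further: wells of about 30 µL received 50 nL stock; many hits fall short of the cut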
RanGTP-Imp inh = inhibitors of RanGTP-importin-beta interaction, primary screen, biochemical, FRET, CFP-Ran, YFP-importin-beta, homogeneous | cell-free CFP-Ran/YFP-importin-beta FRET ratio | inhibition, % (no concentration beside the values) | 1.1% of 300,000 active | AID 2216;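 active means most replicates above 15%; inconclusive means exactly half above 15%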;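 further: 0% = DMSO wells and 100% = Ran loaded with GDP instead of GTP; wells of about 40 µL received 100 nL stock; the first replicate is given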
rRNA inh HTS = inhibitors of bacterial rRNA selective over humanized ribosomes. E. coli WT GFP vs humanized-ribosome RFP mutants, fluorescence, 24 h; active compounds read low; DMSO median 0, no signal -100. GFP signal change (wild-type ribosome), % (test concentration not listed). 1.6% of 350,000 active. AID 720706;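 active means significant combined selectivity score with lowered wild-type GFP, culture density cut under 30%, mutant RFP and density less affected; inactive means any of these conditions unmet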; further: one replicate is shown; some compounds called inactive have numbers as strong as hits
T cruzi inh = T. cruzi replication inhibition; 1.4% of 300,000 active; AID 1885; T. cruzi beta-gal in NIH3T3, luminescence, 90 h; inhibition, % (concentration not given with the values);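 active means mean inhibition across valid replicates above about 55%, limit read from the data; inconclusive means mean below that limit but half or more replicates reach it; inactive means mean below it, under half of replicates reach it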;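 further: signal also drops with host cell toxicity which is not excluded here; 0% = plate median of DMSO wells and 100% = zero luminescence signal; higher percent means less beta-gal luminescence so fewer parasites; stock transfer was 50 nL into about 50 µL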
Beta cell apopt = beta cell apoptosis inhibition. AID 435005. 0.8% of 300,000 active. protection from apoptosis, % (concentration not given with the values). INS-1E cytokine-induced death, ATP luminescence, 48 h; percent of positive-control rescue, neutral wells zero;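 active means all replicates at 75% or more, or half of them and the mean; inconclusive means half reach 75% but not the mean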;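 further: 0% = cytokine-treated negative control wells and 100% = positive control rescue; higher means more ATP so stronger rescue from cytokine killing; wells of about 40 µL received 100 nL stock; the first replicate is given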
MLL AF4-AF9 inh = blocks AF4 peptide binding to human AF9; P42568; AlphaScreen, biotin-AF4 peptide binding to FLAG-AF9; inhibition, % at 10 µM; 0.47% of 350,000 active; AID 651704;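 active means every replicate reaching a set inhibition limit, whatever the replicate mean, cut at about 25% in these data; inconclusive means mean inhibition reaches that limit but some replicates miss it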;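 further: 0% = plate neutral control median and 100% = total signal loss; the record names both 10 and 1 µM as test concentration; the first replicate is given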
Target sequence (P42568 whole entry, looked up): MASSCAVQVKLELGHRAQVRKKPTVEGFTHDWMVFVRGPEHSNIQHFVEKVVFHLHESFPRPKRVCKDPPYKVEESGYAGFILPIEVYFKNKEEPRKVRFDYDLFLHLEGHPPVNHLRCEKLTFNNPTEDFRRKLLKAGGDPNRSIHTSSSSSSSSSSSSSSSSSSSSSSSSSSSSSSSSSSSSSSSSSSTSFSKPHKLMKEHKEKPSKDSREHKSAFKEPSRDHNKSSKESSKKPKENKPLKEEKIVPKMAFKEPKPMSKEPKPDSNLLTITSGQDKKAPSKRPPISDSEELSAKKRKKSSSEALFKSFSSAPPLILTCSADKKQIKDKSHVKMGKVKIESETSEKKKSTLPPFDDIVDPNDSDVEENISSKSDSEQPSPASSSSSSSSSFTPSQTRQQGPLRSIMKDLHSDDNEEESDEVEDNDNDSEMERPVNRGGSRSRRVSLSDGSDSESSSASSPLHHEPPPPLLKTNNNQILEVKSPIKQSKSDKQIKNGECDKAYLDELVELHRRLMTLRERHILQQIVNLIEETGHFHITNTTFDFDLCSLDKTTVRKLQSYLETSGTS
Calb FLC = C. albicans growth modulation with fluconazole. C. albicans CaCi-2 (fluconazole-resistant clinical isolate) + fluconazole, Alamar Blue growth, 48 h. growth inhibition, % (no concentration beside the values). 0.57% of 300,000 active. AID 1979;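 active means most replicates above 75%; inconclusive means exactly half above 75%; inactive means most below 75%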;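 further: all wells also contain fluconazole at 8 µg/ml as a sub-toxic cotreatment; 0% = median of DMSO wells and 100% = median of geldanamycin control wells; wells of about 8 µL received 7.5 nL stock; the first replicate is given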
rRNA inh HTS OD600 = second read-out of rRNA inh HTS, no call of its own (marks repeat the call); OD600 change, %; measured here: OD600 growth;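 optical density of the mix in the first replicate; 0 = DMSO median and -100 = no signal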
rRNA inh HTS RFP = further read-out of rRNA inh HTS, marked with its call; RFP signal change, %; measured here: RFP humanized mutant strains;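 first replicate; 0 = DMSO median and -100 = no signal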
An asterisk follows results filed as active; ? = inconclusive; . = not tested or not shown; & = joins results of further samples.

SMILES	Vif TR-FRET	A1 inh	RanGTP-Imp inh	rRNA inh HTS	rRNA inh HTS OD600	rRNA inh HTS RFP	T cruzi inh	Beta cell apopt	MLL AF4-AF9 inh	Calb FLC
O=C(c1cc(-c2ccc(Cl)cc2)n(-c2ccc(Cl)c(Cl)c2)n1)N1CCOCC1	3%	0.1	-3.6	.	.	.	13	0	.	-5
O=C(Nc1ccc(Cl)cn1)c1ccc2[nH]c(=O)c(=O)[nH]c2c1	3%	0.4	0.1	3	3	-0.7	-4	-2	0.9	.
CC(=O)C[C@H]1c2ccccc2S(=O)(=O)N1C1CCCC1	.	0.4	3.8	2	8	-4.2	7	1	-4.0	-5
COc1ccc(CCNC(=O)c2cc(COc3c(C)cccc3C)on2)c(OC)c1	.	0.8	-0.9	4	1	-0.9	-5	-3	-0.4	3
CCOc1ncccc1C(=O)NNC(=O)c1ccccc1-n1cccc1	.	-0.6	0.1	1	-2	0.2	-7	-4	-2.2	4
COc1cc2[nH]c(=S)n(CCCN3CCOCC3)c(=O)c2cc1OC	4%	0.0	-3.0	.	.	.	2	2	.	-3
COc1cccc(OCC(=O)Nc2ccccc2-c2ccccc2)c1	.	0.2	0.2	-40	-46	-5.3	27	0	-3.3	25
Cc1ccc(N2NC(=O)/C(=C/C=C/c3ccco3)C2=O)cc1C	29%	-0.1	-4.3	13	21	-0.3	-17	.	-1.2	0
O=c1sc(Nc2ccccc2)nc2ccccc12	5%	0.5	1.1	6	-5	2.9	-13	-2	-8.0	24
Cc1ccc(CCCOC(=O)C[N+]2(C)CCCCC2)cc1	-9%	0.2	3.6	15	0	1.2	-1	5	-11	-19
CC(=O)N(CN1C(=O)CCC1=O)c1cccc(Cl)c1	.	-0.6	4.9	12	13	9.4	5	-9	-4.7	-10
CN(C)CCOC(=O)c1ccc2[nH]c3c(c2c1)CSCC3	7%	2.0	0.9	4	4	-0.8	11	-4	21	-1
COC(=O)CNC(=O)CSc1nnc2cc(C)c3ccccc3n12	2%	0.2	-1.9	1	1	3.2	-13	-7	-29	-5
CC(=O)Nc1ccc(N(C)C)cc1[N+](=O)[O-]	1%	0.5	-1.5	.	.	.	-16	.	.	-2
CCN(CC)CCCn1c2c(c(SCC(=O)Nc3ccc(F)c(F)c3)nc1=O)CCC2	5%	-0.8	-1.0	6	9	-2.0	10	.	5.6	-18
CC1CC(C)(C)NC(=S)N1CC(=O)NCc1ccc(F)cc1 (stereo unspecified)	3%	0.1	-0.6	0	0	4.9	-16	5	-2.4	43
CN1CCN(Cc2ccc(OCc3ccccc3)cc2)CC1	0%	0.2	?	.	.	.	52	18	.	-8
CN1CC(c2ccccn2)C2(SC(=S)N(Cc3ccccc3)C2=O)C12C(=O)Nc1ccccc12 (stereo unspecified)	-4%&-7%	-0.5	-1.1	.	.	.	15	6	.	-9
Cc1c(C(=O)N2CCOCC2)oc2ccc(Br)cc12	7%	0.9	-0.6	1	-5	-2.7	0	-6	-1.2	2
Cc1ccc(CNc2nc(C)c(C(=O)N(C)C)s2)cc1	.	0.8	-0.8	0	7	-1.5	-21	-2	7.5	-3
Cc1cc(C)c(C)c(S(=O)(=O)Nc2cccc(-n3cnnn3)c2)c1C	6%	1.3	-1.5	2	4	2.9	11	-2	-9.7	6
Cc1nn(C(C)C(=O)NC(C)CCc2ccccc2)c(=O)c2cc3occc3n12 (stereo unspecified)	4%	2.0	5.6	-5	0	4.8	-3	3	-2.2	-14
Cc1cc(C)c2cc3c(N)c(C(=O)N4CCc5ccccc5C4)sc3nc2c1	33%	0.1	-0.9	-4	6	24	2	.	7.3	63
CC(C)(C)NC(=O)N1CCN(c2nc(-c3ccccc3)ns2)CC1	17%	0.0	4.0	0	-1	0.4	4	3	4.7	2
CCOc1ccc(C(=O)N2CCCC2)cc1	5%	-0.4	?	.	.	.	-12	-2	.	-2
CCc1nc(SCC(=O)Nc2nc3c(s2)CCCC3)c2ccccc2n1	-31%	-1.1	0.4	.	.	.	-5	-11	.	13
O=C(NC1CCCCC1)c1cc(-c2cccc(Cl)c2)on1	.	-0.7	-1.1	7	9	0.9	5	3	-5.6	-14
CCOc1ccc(NC(=O)CCC(=O)c2ccc(-c3ccccc3)cc2)cc1	.	0.8	1.2	.	.	.	-15	-1	.	2
CCn1c(SCc2ccccc2)nc2cc(S(N)(=O)=O)ccc21	.	0.1	2.1	-8	-11	0.3	5	2	0.2	-2
CC(C)c1ccc(/C=C/C(=O)NC2=NCCS2)cc1	-6%	-3.7	-2.7	.	.	.	-2	0	.	-24
CCOC(=O)c1sc(=NC(=O)c2ccc(F)cc2)n(C)c1C	-28%	-5.7	-1.3	5	1	-0.3	2	.	-5.7	-7
Cc1cc([N+](=O)[O-])c2[nH]c(C(=O)N/N=C/c3ccccc3C(=O)O)c(-c3ccccc3)c2c1	18%	.	3.5	.	.	.	1	.	.	24
COc1ccccc1NC(=O)COc1ccc(Br)cc1CNCCCN1CCOCC1	-4%	0.9	5.2	18	11	1.3	26	6	1.2	-9
N#Cc1nc(-c2ccccc2)oc1NCc1ccco1	3%	0.0	0.2	-4	-22	-1.6	0	-4	-2.8	6
COc1ccc(-n2c(C)cc(C(=O)COC(=O)Cn3cnc4ccccc43)c2C)cc1	0%	0.5	-1.7	.	.	.	26	16	.	-24
O=[N+]([O-])c1ccc(O)c(CSc2nnnn2-c2ccccc2)c1	-7%	-0.2	0.0	-26*	-9.5*	-6.4*	0	-2	-0.7	7
CCOc1ccccc1N(C(=O)c1snc(C(N)=O)c1N)C(C(=O)NCC1CCCO1)c1ccc2ncccc2c1 (stereo unspecified)	.	0.5	2.7	4	-14	-9.6	-3	9	18	-5
CN(CC(=O)Nc1ccc(Cl)cc1)C(=O)CCC1CCCC1	15%	-1.0	3.3	6	5	-2.3	-1	-4	-2.1	2
O=C(Nc1c(C(=O)N2CCCCC2)cnn1-c1ccccc1)c1ccccc1	25%	-0.9	-3.3	0	-2	0.9	7	.	-5.5	-2
COc1cccc(/C=C/c2[nH]c(=O)[nH]c(=O)c2[N+](=O)[O-])c1O	3%	0.3	-3.1	5	1	-3.2	-9	-7	1.0	-3
CC(C)(C)OC(=O)N1Cc2ccccc2C[C@H]1C(=O)NCC(=O)NCC1CCCO1 (stereo partly specified)	.	-0.3	0.8	8	3	-0.3	1	-5	-0.3	3
CC1CC(=O)N(CC(=O)Nc2ccc3c(c2)OCO3)c2ccccc2S1 (stereo unspecified)	8%	-0.1	5.9	.	.	.	1	-5	.	-11
COC/C=C/C1=CC2=CC(=O)C(C)(OC(=O)c3cnc4ccccc4n3)C(=O)C2=CN1c1cccc(C#N)c1 (stereo unspecified)	.	0.0	-1.1	.	.	.	-3	-4	.	10
CC1(C)CC(=O)C(C=NCc2ccccn2)=C(O)C1	3%	-0.3	-7.6	7	8	-1.8	-13	-2	-2.0	-16
COC(=O)CNc1nc(Cl)nc(NC2CCCCC2)n1	.	0.3	-1.6	6	-10	-6.8	-1	-5	-1.2	8
CCOC(=O)c1cccc(NC(=O)CNC(=O)C2CCCCC2)c1	3%	0.2	?	-1	3	3.1	7	-24	2.5	13
CCCN1Cc2cccc(C(=O)NCCc3cccc(C)c3)c2C1=O	2%	-0.4	-2.3	-36	-49	-10	20	-10	-8.7	-5
O=C(O)CCc1nc2cc(Cl)ccc2n(Cc2ccccc2)c1=O	0%	0.2	-4.0	-2	-8	3.0	7	10	-1.0	-11
Fc1ccc(NC(=S)Nc2nccs2)cc1	.	-3.3	-0.6	-4	-10	-4.4	66*	43	8.9	21
CCC1C(=O)Nc2ccccc2N1C(=O)c1ccc(Cl)nc1 (stereo unspecified)	18%	0.5	-1.5	-3	-11	2.2	-2	-7	-1.1	-9

Next compounds
SMILES	Vif TR-FRET	A1 inh	RanGTP-Imp inh	rRNA inh HTS	rRNA inh HTS OD600	rRNA inh HTS RFP	T cruzi inh	Beta cell apopt	MLL AF4-AF9 inh	Calb FLC
COc1ccccc1NC(=O)C1CCCN(C(=O)NCc2ccccc2)C1 (stereo unspecified)	-15%	0.2	6.7	-3	1	-1.3	-8	1	-3.3	-4
O=C(NCCc1ccc2c(c1)OCCO2)c1ccccc1F	.	-3.5	-2.9	-6	7	-3.0	10	3	-49	-2
CCOC(=O)Cn1c(-c2ccc(OC)cc2)c(-c2ccc(OC)cc2)nnc1=O	.	0.1	2.0	-22*	-16*	0.8*	4	-5	3.7	13
Clc1ccc(Nc2nc(C3CC3)cs2)cc1	5%	-0.7	-0.3	-9	-10	5.3	11	3	4.7	-21
O=C1OCc2cc(NC(=O)C3CCCO3)ccc21 (stereo unspecified)	9%	0.2	0.3	.	.	.	-3	-5	.	7
CSc1ccccc1NC(=O)Nc1ccccc1Cl	5%	-0.5	-0.1	-11	-6	-3.4	?	4	-8.3	-14
CC(C)OP(=O)(OC(C)C)C(O)c1ccc2c(c1)OCO2 (stereo unspecified)	-2%	0.6	1.5	.	.	.	-30	-1	.	6
COc1ccc(NC(=O)c2nc(C)c(C3(C)CC(c4ccccc4)=NO3)s2)cc1 (stereo unspecified)	3%	0.2	0.7	-2	-9	8.3	14	45	0.8	-19
O=C(Nc1ccccc1)N(O)c1ccc(Cl)cc1	7%	-3.5	3.9	.	.	.	-4	-10	.	.

Arranged by value in MLL AF4-AF9 inh (ascending): some entries from above.
structure | MLL AF4-AF9 inh
CSc1ccccc1NC(=O)Nc1ccccc1Cl | -8.3
COc1ccc(NC(=O)c2nc(C)c(C3(C)CC(c4ccccc4)=NO3)s2)cc1 (stereo unspecified) | 0.8
Clc1ccc(Nc2nc(C3CC3)cs2)cc1 | 4.7

Record cards, as listed above.
Record of Clc1ccc(Nc2nc(C3CC3)cs2)cc1 = Vif TR-FRET: 5%; A1 inh: -0.7; RanGTP-Imp inh: -0.3; rRNA inh HTS: -9; rRNA inh HTS OD600: -10; rRNA inh HTS RFP: 5.3; T cruzi inh: 11; Beta cell apopt: 3; MLL AF4-AF9 inh: 4.7; Calb FLC: -21
Record of COc1ccc(NC(=O)c2nc(C)c(C3(C)CC(c4ccccc4)=NO3)s2)cc1 (stereo unspecified) = Vif TR-FRET: 3%; A1 inh: 0.2; RanGTP-Imp inh: 0.7; rRNA inh HTS: -2; rRNA inh HTS OD600: -9; rRNA inh HTS RFP: 8.3; T cruzi inh: 14; Beta cell apopt: 45; MLL AF4-AF9 inh: 0.8; Calb FLC: -19

Some of the compounds tested; the hit share may differ from the screen's.
